High-throughput results as filed in PubChem.
2A Renilla – lowers the Renilla signal of an FMDV 2A StopGo reporter; HEK cells with a luciferase reporter of 2A StopGo recoding; Potency, µM (series often up to 57.5 µM), without a hit: at the top dose signal change, negative = less light; 0.32% of 120,000 active; AID 1745857; active means well fitted falling curve with a large enough effect; inconclusive means small, poorly fitted or top-dose-only effect; inactive means no such curve, though single readings can be large or run the other way; also: nearly all actives have a fitted effect of over 55% in size; overnight with compound
2A firefly – lowers the firefly signal of an FMDV 2A StopGo reporter; Potency, µM (doses to about 57.5 µM), inactives show at the highest dose signal change, negative = less light; HEK cells with a luciferase reporter of 2A StopGo recoding; 0.23% of 120,000 active; AID 1745856; active = well fitted falling curve with a large enough effect; inconclusive = small, poorly fitted or top-dose-only effect; inactive = no such curve, though single readings can be large or run the other way; also: nearly all actives have a fitted effect of over 60% in size; overnight with compound
An asterisk follows results filed as active; ? = inconclusive; & = joins results of further samples; [ ] = dose if it differs, or a comment. % is scaled to controls: 0 for no effect and ±100 for the full control effect; potency is read from the fitted curve at half-maximal effect. This is a subset; the hit share may differ from the screen's.

nr | structure | 2A Renilla | 2A firefly
1 | Cc1cc(C)c(SCC(=O)NC(C)(C#N)C2CC2)c(C)c1 (stereo not given) | 45%[activator] | 10%
2 | COc1ccc(OC)c(NC(=O)Cn2ccn(-c3ccc(OC)c(OC)c3)c(=O)c2=O)c1 | -13% | -16%
3 | CCC(N)Cc1c[nH]c2ccccc12 (stereo not given) | 3% | 34%[activator]
4 | O=C(Cn1cnc(S(=O)(=O)N2CCOCC2)c1)N1CCN(c2ccc(F)cc2)CC1 | 23% | 35%[activator]
5 | Cc1ccccc1-c1nc(CN2CCC(C(=O)NCCc3ccccc3)CC2)c(C)o1 | -17% | -9%
6 | Cn1c(=O)[nH]c(=O)c2c1nc(N1CCN(CC(N)=O)CC1)n2Cc1ccccc1Cl | -7% | -5%
7 | CN(Cc1ccccc1)C(=O)c1ccc2c(c1)N(Cc1ccccc1Cl)C(=O)c1ccccc1S2 | 209%[activator] | -18%
8 | Oc1c(I)cc(I)c2cccnc12 | -5% | -15%
9 | O=C(Cn1nc(-c2ccco2)ccc1=O)Nc1ccccc1 | -14% | -9%
10 | CCc1ccc2oc(C(=O)N(Cc3ccccc3)C3CCS(=O)(=O)C3)cc(=O)c2c1 (stereo not given) | 19% | -4%
11 | CC(=O)Nc1c(-c2ccc(C)cc2)c(C)nn1-c1ccc(C(=O)NCc2cccnc2)cc1 | -29% | -24%
12 | CC(C)(C)c1ccc(/C=N/OCC(=O)Nc2ccc3c(c2)OCCO3)cc1 | ? | 12%
13 | COc1ccc(OC)c(CN2CCC(C(O)(c3ccccc3)c3ccccc3)CC2)c1 | 8% | 0%
14 | O=C(C1CCN(S(=O)(=O)c2cccs2)CC1)N1CCN(c2cccc(Cl)c2)CC1 | -1% | 3%
15 | Cc1ccc(C)c(-n2c(N)c(C#N)c3nc4ccccc4nc32)c1 | -10% | -8%
16 | Cc1ccc(S(=O)(=O)N(Cc2ccco2)Cc2ccco2)cc1 | 74%[activator] | 0%
17 | Cc1c(Br)cc(C(=O)O)cc1Br | 11% | 6%
18 | COc1cc(C#N)ccc1OCc1csc(-c2cccc(OC)c2OC)n1 | -7% | 0%
19 | C=CCSc1nnc(NC(=O)c2cc(=O)c3cc(C)c(C)cc3o2)s1 | -10% | -12%
20 | Cc1ccccc1C(=O)Nc1nc2nc(-c3ccccc3)cc(=O)n2[nH]1 | -3% | -5%
21 | O=C(CSc1nnc2ccc3ccccc3n12)Nc1ccccc1Cl | 7% | 109%[activator]
22 | COc1ccc(CNC(=O)c2cc3sccc3n2C)cc1 | 22% | 0%
23 | CCCNC(=O)c1ccc2ccccc2n1 | -4%[1.06 µM] | 0%
24 | Cc1cccc2sc(N(CCCN(C)C)C(=O)c3cccc(F)c3)nc12 | -10% | -7%

Laid out differently: five of the compounds above
Order of values: 2A Renilla | 2A firefly
[19] C=CCSc1nnc(NC(=O)c2cc(=O)c3cc(C)c(C)cc3o2)s1
    -10% | -12%
[20] Cc1ccccc1C(=O)Nc1nc2nc(-c3ccccc3)cc(=O)n2[nH]1
    -3% | -5%
[21] O=C(CSc1nnc2ccc3ccccc3n12)Nc1ccccc1Cl
    7% | 109%[activator]
[22] COc1ccc(CNC(=O)c2cc3sccc3n2C)cc1
    22% | 0%
[23] CCCNC(=O)c1ccc2ccccc2n1
    -4%[1.06 µM] | 0%

Carrying on.
nr | structure | 2A Renilla | 2A firefly
25 | CC(C)(C)C(NC(=O)c1ccccc1)c1ccccc1 (stereo not given) | 10% | 1%
26 | CCc1nc(NCC2CCCO2)c(C#N)c2c1CCCC2 (stereo not given) | -3% | 5%
27 | O=C(Nc1nnc(C2CC2)s1)C(Sc1ccccc1)c1ccccc1 (stereo not given) | 7% | 23%
28 | COc1cccc(-c2nn(C)c3sc(C(=O)N4CCN(c5cccc(C)c5)C(C)C4)cc23)c1 (stereo not given) | -14% | -28%
29 | Cc1oc(-c2nc(C#N)c(NCc3ccco3)o2)cc1S(=O)(=O)N1CCCC1 | 39% | -5%
30 | Cn1ccnc1Sc1cc(C(=N)N)ccn1 | 5% | 5%
31 | CCN(Cc1cc2cccc(C)c2[nH]c1=O)C(=O)c1ccc(C(C)(C)C)cc1 | ? | ?
32 | Cc1ccc(C(=O)NCC(C)C)cc1C | 14% | 139%[activator]
33 | C=CCNS(=O)(=O)c1cc(C(=O)O)ccc1F | -1% | -12%
34 | C=Cc1ccc(Cn2c(C(=O)O)c(CNCc3cc(OC)ccc3OC)c3ccc(C)cc32)cc1 | 15% | -8%
35 | COc1cccc(N2CCN(C(=O)c3c(C)oc4ncnc(N5CCOCC5)c34)CC2)c1 | -7% | -20%
36 | CCOc1ccc(CNC(=O)Cn2c(=O)[nH]c3c(-c4ccc(F)cc4)c[nH]c3c2=O)cc1OCC | -5% | -6%
37 | CCOc1ccc(CCNC(=O)c2ccc(-n3c(C)cc4c3CCC(C)C4)cc2)cc1OCC (stereo not given) | -22% | -18%
38 | Cc1cc2oc(C(=O)Nc3nnc(CC(C)C)s3)cc(=O)c2cc1C | -8% | -6%
39 | c1ccc(CCn2cccc2)cc1 | -5% | -3%
40 | Cc1ccc2nc(/C(C#N)=C\c3cccc(OCc4ccc(F)cc4)c3)[nH]c2c1 | 23% | 0%
41 | Cc1ccc(SCc2ccc(C(=O)Nc3cccc(C)c3C)cc2)cc1 | 3% | 3%
42 | COc1cccc(CNC(=O)Cc2c(C)c3c(cc(C)c4c(C)c(C)oc43)oc2=O)c1 | -10% | -8%
43 | COc1ccc(-c2cc(=O)n3c4ccccc4n(Cc4cccc(F)c4)c3n2)cc1 | -1% | 5%
44 | CCn1c(C(=O)Nc2ccccc2C(=O)OC)cc2sc(Cl)cc21 | -14% | -20%
45 | COc1ccc(NC(=O)Nc2cccc(-c3cn4cccnc4n3)c2)cc1 | -4% | 46%[activator]
46 | Fc1ccccc1-c1nnc(SCCc2ccncc2)n1C1CC1 | 7% | -2%
47 | O=C(Nc1ccc2c(c1)OCCO2)N1CCC(NS(=O)(=O)c2ccc(Cl)cc2)CC1 | 4% | 138%[activator]
48 | CC(NC(=O)C12CC3CC(CC(C3)C1)C2)c1cc2ccccc2o1 (stereo not given) | 15% | -5%
49 | O=C(O)c1cccc(-c2ccc(CNCc3ccccc3)o2)c1 | 31%[activator] | 35%[activator]
50 | CCc1ccc(NC(=O)c2cc(S(=O)(=O)NC3CCCCCC3)ccc2F)cc1 | 220%[activator] | -13%
51 | CCCC(=O)N1CCN(c2ccc(NC(=O)C3(c4ccccc4)CCCC3)cc2)CC1 | -13% | -7%
52 | CC(C)Oc1ccc(NC(=O)c2ccc(Cl)cc2)cc1 | -6% | 0%
53 | COC(=O)c1ccc(COC(=O)COc2ccc(C#N)cc2)o1 | 6% | -5%
54 | O=C(O)C(c1c[nH]c2ccccc12)N1CCN(Cc2cccc(Cl)c2)CC1 (stereo not given) | -8% | -3%
55 | CCOC(=O)c1ccc(NC(=O)COCc2cc(-c3ccc4c(c3)OCO4)on2)cc1 | -12% | -21%
56 | CCCC(=O)n1nc(NCc2ccc(OC)cc2)nc1NCc1ccc(OC)cc1 | 8% | -6%
57 | Cc1sc2ncn(CC(=O)N3CCN(c4ccc(F)cc4)CC3)c(=O)c2c1S(=O)(=O)N1CCN(c2ncccn2)CC1 | -6% | -17%
58 | O=C(CNC(=O)c1ccccc1)OCc1cc(=O)n2ccsc2n1 | -11% | -8%
59 | COc1ccc(OC)c(CNC(=O)C2CCN(S(=O)(=O)N3CCCCC3)CC2)c1 | -12% | -21%
60 | CC(C)(C)c1ccc(C(=O)NCC(=O)NC2CCCC2)cc1 | 15% | 0%
61 | Cc1cccc(-c2nc(-c3ccc(Br)cc3)no2)c1 | -7% | -7%
62 | Cc1cccc(C)c1NC(=O)CN1CCN(CCCC(c2ccc(F)cc2)c2ccc(F)cc2)CC1 | -6% | -14%
63 | Cc1nn(C(=O)c2cccc([N+](=O)[O-])c2C)c(C)c1S(=O)(=O)N1CCOCC1 | -1% | -6%
64 | CCOc1ccc(NC(=O)C(=O)NCCc2csc(-c3ccc(C)cc3)n2)cc1 | -13% | -5%
65 | Cc1cc(C)c(S(=O)(=O)Nc2ccc3oc4c(c3c2)CCCC4)cc1C | -14% | 8%
66 | COc1ccccc1CNC(=O)c1sc(NCC(C)C)nc1C | -8% | 4%
67 | CSc1cccc(Nc2nc(N)c(C(=O)c3cccc(Br)c3)s2)c1 | 63%[activator] | 157%[activator]
68 | CN1C(=O)C2(c3ccccc31)N(c1ccc(Br)cc1)C(=O)CS2(=O)=O (stereo not given) | -3%&-2% | -10%&-5%
69 | CC(C)CC(NS(=O)(=O)c1ccc2c(c1)oc(=O)n2C)C(=O)NCCc1ccc(Cl)cc1 (stereo not given) | 5% | -13%
70 | O=C(NCc1cccc(Cl)c1)c1c2c(nc3ccccc13)C(=O)N(C1CCCCC1)C2 | -17% | -18%
71 | CCc1cc(CC)n(-c2nc3c(c(=O)[nH]c(=O)n3C)n2Cc2ccccc2)n1 | 4% | -13%
72 | CCCCNC(=O)CN1CCN(c2ccc(NS(=O)(=O)c3cccs3)cc2C(=O)O)CC1 | 10% | 16%
73 | COc1cccc(NC(=O)c2oc3ccc(S(=O)(=O)N4CCCCCC4)cc3c2C)c1 | 1% | ?
74 | COc1cc(NC(=O)Cn2cnc3sc(C)c(S(=O)(=O)N4CCC(C)CC4)c3c2=O)cc(OC)c1OC | -12% | -13%
75 | Cc1ccccc1C(=O)Nc1sc2c(c1C(=O)N1CCN(Cc3ccccc3)CC1)CCC2 | 107%[activator] | -19%
76 | Cc1cn2c(=O)cc(COC(=O)c3cccc(NC(=O)COc4ccccc4)c3)nc2s1 | 4% | -32%
77 | CCc1nnsc1C(=O)NCC1(c2cccc(Cl)c2)CCOCC1 | -5% | -8%
78 | CCn1c(=O)c(=O)[nH]c2cc(C(=O)N3CCN(C(=O)C4CC4)CC3)ccc21 | 18% | 3%
79 | Cc1ccc(S(=O)(=O)Nc2nc3ccccc3nc2NC2CCCCC2)cc1 | 9% | 4%
80 | Cc1cc(C)n(-c2nc3c(c(=O)n(CCc4ccccc4)c(=O)n3C)n2C(C)C)n1 | -8% | -12%
81 | Cc1ccc(C)c(S(=O)(=O)Nc2ccc3nc(C)sc3c2)c1 | 135%[activator] | ?
82 | CCOC(=O)c1c[nH]c2cc(Br)c(Br)cc12 | 14% | 0%
83 | COc1cc(=O)n(-c2ccc(F)cc2)nc1C(=O)Nc1ccccc1SC | 1% | -11%
84 | CSc1ccccc1NC(=O)c1ccc(CSc2ccccc2)cc1 | -3% | 95%[activator]

Going on with the list:
nr | structure | 2A Renilla | 2A firefly
85 | Cc1nc(-c2ccccc2Cl)sc1C(=O)N[C@@H](C)C(=O)O | -10% | -1%
86 | COc1ccc(-c2c(C)nn3c(NC4CCCCC4)cc(C)nc23)cc1OC | -9% | -14%
87 | C=C(C)COc1ccc(Cl)cc1C(N)=O | -9% | 3%
88 | N#Cc1nc(-c2ccc(S(=O)(=O)N3CCCC3)cc2)oc1N1CCN(c2ccccc2)CC1 | 0% | -8%
89 | CC(=O)c1ccc(NC(=O)CCc2c(C)nn(-c3ccc4nncn4n3)c2C)cc1 | -4% | 14%
90 | Cc1cc(C)nc(SC(Cl)(Cl)Cl)n1 | -1% | -10%
91 | CC(C)CC(CNC(=O)c1n[nH]c(=O)c2ccccc12)N1CCOCC1 (stereo not given) | -6% | 4%
92 | Nc1nccnc1C(=O)NCc1ccc(N2CCCCC2)nc1 | 5.6µM* | ?
93 | O=C(c1cc2cc(Br)ccc2oc1=O)N1CCCCCC1 | 7% | 16%
94 | CCOc1ccc(-n2c(C)nc3cc(C(=O)NCCC4=CCCCC4)ccc32)cc1 | -10% | 2%
95 | Cc1ccc2[nH]c3c(=O)n(CC(=O)NCCc4ccc(Cl)cc4)ncc3c2c1 | -7% | -6%
96 | O=C(O)c1cccc(OCc2cccc(Cl)c2)c1 | 18% | 0%
97 | N#Cc1ccccc1COc1ccccc1C(N)=O | -16%[1.06 µM] | 2%
98 | COc1ccc(NC(=O)c2nn(C)c(=O)c3ccccc23)cc1OC1CCCC1 | 41%[activator] | 38%[activator]
99 | O=C(Cn1ccn(-c2ccc(F)cc2)c(=O)c1=O)Nc1ccc(F)cc1 | -7%&-8% | -5%&-16%
100 | COc1ccccc1NC(=O)CSc1nnc(-n2nc(C)cc2C)n1N | 17% | 2%
101 | CC(=O)Nc1ccc2[nH]cc(C(C(=O)O)N3CCN(c4nc5c(cc4C#N)CCCC5)CC3)c2c1 (stereo not given) | -14% | -2%
102 | COc1ccc(C)c2sc(NC(=O)c3ccc(S(=O)(=O)N(C)C)cc3)nc12 | 8% | 25%
103 | Cc1nnc(NC(=O)CSc2nccn2-c2cccc(Cl)c2)s1 | 12% | -3%
104 | COc1ccccc1CNC(=O)CCCc1nnc2n(CC(C)C)c(=O)c3sccc3n12 | -4% | -6%
105 | O=Cc1cccn1-c1ccccn1 | -10%[1.06 µM] | 11%
106 | O=C(NCC1CC1)c1nc(-c2ccc3[nH]ccc3c2)no1 | 29% | 187%[activator]
107 | COc1ccc(C23CC4CC(C2)CC(c2ccc(OC)c(C(=O)NC(C)C)c2)(C4)C3)cc1C(=O)NC(C)C | 10% | 28%
108 | CCc1cccc2c3c([nH]c12)C(CC)(CC(=O)O)OCC3 (stereo not given) | -4% | 2%[11.5 µM]
109 | Cn1cnc2c1c(=O)n(CC(=O)NCc1ccc(OC(F)(F)F)cc1)c(=O)n2C | -7% | 3%
110 | CC1Cc2cc(S(=O)(=O)NCCC(=O)NCc3cccs3)ccc2N1C(=O)C1CC1 (stereo not given) | 31%[activator] | -3%
111 | Cc1ccc(C)c(N2CCN(C(=O)c3cc4c(=O)n(Cc5ccco5)ccc4nc3C)CC2)c1 | -14% | -25%
112 | CCc1cc(=O)oc2c(C)c(OCC(=O)NCCCN3CCOCC3)ccc12 | -4% | 7%
